TRPML1 ag: agonists of human TRPML1 channel; 410,000 compounds, 0.12% hits; AID 624414; activation, % (concentration not given with the values); TRPML1-expressing cells, Ca2+ dye fluorescence, FDSS; host cell line not named in the record; reference of the full effect not given here; Q9GZU1; in the data active = activation above about 50%; inconclusive = about 30% to 50%; inactive = below about 30%; also: 0% is about no effect; the text of the record puts the active cut at 80%
Target sequence (Q9GZU1 whole entry, looked up): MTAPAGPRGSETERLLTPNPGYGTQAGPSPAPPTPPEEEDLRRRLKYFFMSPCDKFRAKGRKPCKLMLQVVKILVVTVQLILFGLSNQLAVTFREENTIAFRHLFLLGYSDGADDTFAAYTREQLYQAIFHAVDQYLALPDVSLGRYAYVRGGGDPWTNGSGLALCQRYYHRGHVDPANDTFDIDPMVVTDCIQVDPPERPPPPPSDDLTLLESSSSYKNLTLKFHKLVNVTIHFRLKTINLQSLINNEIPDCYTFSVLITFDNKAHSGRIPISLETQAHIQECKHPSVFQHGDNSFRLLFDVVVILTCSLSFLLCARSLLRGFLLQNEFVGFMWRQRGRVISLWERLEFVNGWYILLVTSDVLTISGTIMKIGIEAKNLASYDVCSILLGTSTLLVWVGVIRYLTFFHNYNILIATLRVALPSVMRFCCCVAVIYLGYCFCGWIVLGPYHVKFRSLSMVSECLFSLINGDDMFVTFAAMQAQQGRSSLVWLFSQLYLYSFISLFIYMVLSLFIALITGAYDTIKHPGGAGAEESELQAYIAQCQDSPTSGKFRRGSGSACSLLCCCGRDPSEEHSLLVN
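Tet-induced TRPML1-DL cells, 1,500 per well, cultured overnight, were loaded with a no-wash Ca2+ dye for 45–90 min. Calcium fluorescence was recorded on the FDSS for 110 s after compound addition, before the EC80 agonist (4 uM 54-4) was added.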
PINK1 modulator: PINK1 expression modulation; PINK1 immunofluorescence, high-content cytometry, 24 h; Potency, µM (doses to about 76.6 µM), inactives show at the top dose activation (PINK1 increase), usual class: activators; 410,000 compounds, 0.2% hits; AID 624263; active = well fitted activation curve with a large enough effect; inconclusive = small, poorly fitted or top-dose-only effect; inactive = flat fitted curve, though single readings scatter; cell line not stated here;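 also: potency is read from the fitted curve at half-maximal effect; % of control where 0% means no effect; nearly all actives have a fitted effect of over 65% in size; a mitochondrial uncoupler was the plate control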
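A stable cell line was treated with compounds at 5 concentrations for 24 hours, with CCCP as control. PINK1 levels and mitochondrial localization were measured by immunofluorescence with mitochondrial, cell and nuclear markers after fixation, read by laser-scanning cytometry.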
TRPML1 inh: inhibitors of human TRPML1 channel; Q9GZU1; TRPML1-inducible cells, Ca2+ dye fluorescence, FDSS; active compounds read low; inhibition of EC80 agonist-evoked calcium signal; activity change, negative = inhibition, % (test concentration not listed); 390,000 compounds, 0.02% hits; in the data active means activity change below about -50%; inconclusive means about -30% to -50%; inactive means above about -30%;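 also: stimulus is agonist 54-4 at its EC80 concentration; % is scaled to controls: 0 for no effect and ±100 for the full control effect; compound concentration not given in the record; the text of the record puts the active cut at -80%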
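Tet-induced TRPML1-DL cells loaded with Ca8 no-wash calcium dye were read kinetically on FDSS. Compound addition was followed by EC80 agonist 54-4 (4 uM final); inhibition was read over 110 s.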
Six1-Eya2 blk: Six1/Eya2 interaction inhibition. Q15475+O00167. AlphaScreen GST-Six1/His-Eya2 binding, biochemical; active compounds read low; control for the full effect not named in the record. activity change, % (no concentration beside the values). 360,000 compounds, 0.56% hits. AID 651725; in the data active = activity change below about -65%; inconclusive = about -30% to -65%; inactive = above about -30%; also: % is scaled to controls: 0 for no effect and ±100 for the full control effect
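Six1/Eya2 binding was read as AlphaScreen signal after compounds were pinned into GST-Six1 plus His-tagged Eya2 (5X stock 250/500 nM) in pH 8.0 Tris/NaCl/TCEP buffer, beads added, then incubated 1 h, 37 C, dark.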
CtBP-E1A blk: blocks the CtBP interaction with E1A; AlphaScreen GST-E1A/His-CtBP binding, 1536-well; active compounds read low; control for the full effect not named in the record; activity change, % (no concentration beside the values); 340,000 compounds, 0.49% hits; in the data active means activity change below about -65%; inconclusive means about -30% to -65%; inactive means above about -30%; also: % is scaled to controls: 0 for no effect and ±100 for the full control effect
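In 5 uL wells, 23 nL compound meets equimolar GST-E1A and His-CtBP (5X stock 125 nM each) for 2 h, 37 °C. Beads (5X, 50 ug/mL) then 1 h, 37 °C, dark.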
D2 agonist: activates the human D2 dopamine receptor; P14416; DiscoveRx PathHunter D2 beta-arrestin, luminescence, 90 min; 100% = 57 uM dopamine signal; activation, % (no concentration beside the values); 360,000 compounds, 0.084% hits; AID 624465; in the data active = activation above about 40%; inconclusive = about 15% to 40%; inactive = below about 15%; also: compound concentration not given in the record; the text of the record calls up to 30% inactive
Target sequence (P14416 whole entry, looked up): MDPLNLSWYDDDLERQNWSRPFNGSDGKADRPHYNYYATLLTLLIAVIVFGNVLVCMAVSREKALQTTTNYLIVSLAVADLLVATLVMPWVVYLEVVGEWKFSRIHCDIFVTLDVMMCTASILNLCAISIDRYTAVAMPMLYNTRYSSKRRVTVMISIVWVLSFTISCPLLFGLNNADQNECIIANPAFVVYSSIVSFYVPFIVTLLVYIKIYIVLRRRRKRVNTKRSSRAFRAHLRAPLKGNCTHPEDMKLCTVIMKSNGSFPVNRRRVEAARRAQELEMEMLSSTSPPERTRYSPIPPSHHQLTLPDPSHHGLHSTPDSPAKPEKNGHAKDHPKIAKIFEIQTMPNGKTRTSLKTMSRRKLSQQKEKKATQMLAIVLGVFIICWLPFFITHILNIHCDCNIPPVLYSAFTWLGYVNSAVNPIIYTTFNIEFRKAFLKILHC
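DiscoveRx PathHunter D2 beta-arrestin cells (2,100/well) attached overnight, then compound-stimulated 90 min at 37 C in HBSS/10 mM HEPES/0.1% Tween-20 buffer; beta-galactosidase complementation read by luminescence after 1 h at ambient temperature. Dopamine 57 uM final (EC100) as control.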
Active calls of the source: *; ? = inconclusive; / = not tested or not shown; & = joins results of further samples; [ ] = another dose, or the depositor's remark.

SMILES | TRPML1 ag | PINK1 modulator | TRPML1 inh | Six1-Eya2 blk | CtBP-E1A blk | D2 agonist
CCC1CCCCN1S(=O)(=O)c1ccc2c(c1)CCN2C(C)=O (stereo unspecified) | -0.3 | 2.1% | -7 | 1 | 5 | -2.3
O=C(CCCNC(=O)c1ccc(Cl)cc1)Nc1ccc(S(=O)(=O)Nc2ncccn2)cc1 | / | 1.3% | / | 3 | -4 | -6.0
Cc1ccc2c(c1)N(S(=O)(=O)c1ccc3c(c1)NC(=O)CC(=O)N3)CCO2 | 0.1&0.9 | 0.8%&-1.5% | -3&-6 | -1 | 1 | -0.5
NC(=O)N/N=C/c1ccccc1OC(=O)c1ccccc1Br | -0.3 | 0.6% | -14 | -9 | -21 | 1.5
COC(=O)NC(=C(Cl)Cl)S(=O)(=O)c1ccccc1 | 0.1 | 3.8% | -1 | -5 | -2 | -3.7
COc1ccc(CNC(=O)c2coc(=O)c3ccccc23)cc1 | -0.1 | 0.9% | 11 | 5 | -8 | -3.4
Cc1ccc2nc3c(cc(C(=O)NCCc4ccccc4)c(=N)n3CCCN3CCOCC3)c(=O)n2c1 | -0.6 | 1.2% | 6 | -7 | -8 | -2.4
COc1ccc(CNC(=O)CN(C(=O)CCC(=O)Nc2nccs2)c2ccccc2C)cc1 | 0.0 | -0.7% | 12 | -1 | 3 | 0.9
CCc1noc(C)c1C(=O)N1CCCSC1=Nc1ccccc1 | 1.2 | -1.0% | 12 | 11 | -6 | -3.6
O=C(Nc1ccc2c(c1)CN(Cc1ccccc1O)CC2)C1CCCO1 (stereo unspecified) | -0.3 | -1.9% | -19 | 10 | / | -8.8
Cc1cccc(Cn2ccc(NC(=O)c3ccc4c(c3)OCO4)n2)c1 | -0.1 | -0.1% | 0 | -13 | -6 | 0.1
Cc1cccc(Nc2ccc(C(=O)O)cc2[N+](=O)[O-])c1C | -1.1 | 3.1% | -3 | -7 | 4 | -4.9
CC1Cc2nc(SCC(=O)N3CCN(c4ccccc4)CC3)n(C)c(=O)c2S1 (stereo unspecified) | -0.1 | -1.4% | 21 | 1 | 1 | -0.6
O=C(CCCC(=O)N(CC(=O)NC1CCCC1)C1CCCC1)Nc1ccccn1 | -0.2 | -1.6% | 3 | ? | -1 | -4.1
C/C(=N\NC(=S)NCc1ccccc1)c1cccs1 | 0.7 | -1.7% | 21 | 1 | -15 | -7.8
CN(/N=C/c1ccccc1O)C(=S)c1ccccc1 | -1.1 | -0.6% | 0 | ? | -19 | -0.3
COc1cc(OC)cc(C(=O)Nc2cc(C)on2)c1 | / | 0.7% | / | 2 | / | 0.1
O=C(CN1CCSCC1)N/N=C/c1ccc(F)cc1F | 3.3 | -2.2%[38.3 µM] | 12 | 4 | 5 | -0.3
C/C(=N\NC(=O)COc1ccc(C)cc1Br)c1cc([N+](=O)[O-])cs1 | 1.1 | 3.1% | 19 | -5 | 0 | 2.9
Cc1ccc(NS(=O)(=O)c2ccc(C(=O)N3CC(C)CC(C)C3)cc2)cc1 (stereo unspecified) | 29 | -1.5% | 7 | -3 | 3 | -5.0
CCc1nn2c(-c3ccco3)ccnc2c1-c1ccccc1 | 0.6 | 3.1% | -4 | / | / | /
COc1cc(NC(=O)Cn2c(=O)ccc3cc(S(=O)(=O)N4CCCC4)ccc32)cc(OC)c1 | 0.7 | -4.6% | 4 | / | / | /
CCn1c(SCC(=O)NC2CCCc3ccccc32)nnc1-c1cccs1 (stereo unspecified) | -0.4 | 0.8% | -12 | 4 | 9 | -0.9
CCN1C(=O)[C@H]2[C@@H](c3ccc(C)cc3)N[C@]3(CCCN(Cc4ccc(Cl)cc4)C3=O)[C@H]2C1=O | -0.3 | 0.5% | -9 | 36 | -19 | -6.7
CCc1ccc(NC(=O)c2cc(C)nn2-c2ccccc2)cc1 | 0.4&0.6 | 1.0%&4.6% | -7&-12 | 5 | 0 | -1.7
Cc1[nH]c2ccccc2c1C(=O)COC(=O)C1CCC(=O)N1 (stereo unspecified) | 0.7 | -3.0% | 42 | 11 | 2 | 1.8
COCCCNCCCCOc1ccc(C)cc1[N+](=O)[O-] | -0.6 | 0.3% | 4 | -4 | 4 | -0.4
CCN(CC)S(=O)(=O)c1cccc(C(=O)OCC(=O)c2ccc3c(c2)NC(=O)CO3)c1 | 0.7 | / | 5 | 1 | 1 | 0.6
COc1ccccc1NC(=O)CSCC(=O)N1c2ccccc2CCc2ccccc21 | 2.6 | 1.4% | 24 | 8 | / | -4.6
COC(=O)c1scc(-c2ccc(C)cc2)c1S(=O)(=O)Nc1ccc(N(C)C)cc1 | 0.4 | 6.6% | -2 | / | / | /
COc1ccc(NC(=O)C(C)N2C(=O)c3ccccc3C2=O)c(OC)c1 (stereo unspecified) | 1.0 | -0.4% | -15 | -2 | 5 | -3.6
Cc1cccc(NC(=O)c2ccc(NCC3CCCO3)c([N+](=O)[O-])c2)c1 (stereo unspecified) | 0.9 | ? | -12 | -20 | -5 | -5.3
CCc1ccc(OC(C)C(=O)N(Cc2ccco2)C2CCS(=O)(=O)C2)cc1 (stereo unspecified) | -0.9 | -1.0% | 0 | -1 | -3 | -2.6
O=C(O)c1[nH]c2ccccc2c1CC(=O)N1CCOCC1 | -0.5 | 0.5% | -14 | 3 | 4 | -0.8
C/C(=N\N1CCN(Cc2ccccc2)CC1)c1ccco1 | 4.0 | -1.6% | -1 | 14 | 0 | -0.4
Nc1nnc(CSCc2ccc(F)cc2)s1 | -0.3 | 2.6%[38.3 µM] | -7 | 0 | -7 | -0.7
COc1ccccc1NC(=O)COC(=O)CCc1ccc(S(=O)(=O)N2CCOCC2)cc1 | 0.6 | 2.3% | -9 | 7 | -3 | -0.5
O=C(CNC(=O)OCc1ccccc1)NC1CCCCNC1=O (stereo unspecified) | -0.5 | 2.4% | 8 | -4 | -14 | -4.6
CCCCc1c(O)nc(SCC(=O)c2ccccc2)n(-c2ccccc2OC)c1=O | 1.6 | 0.4% | -2 | -1 | -8 | -3.7
COc1ccccc1C(=O)N1C(CC(=O)Nc2ccccc2C)C(=O)NC2CCCCC21 (stereo unspecified) | 1.7 | 0.5% | -6 | 10 | 8 | 8.0

3 entries from above, comma-delimited:
SMILES,TRPML1 ag,PINK1 modulator,TRPML1 inh,Six1-Eya2 blk,CtBP-E1A blk,D2 agonist
C/C(=N\N1CCN(Cc2ccccc2)CC1)c1ccco1,4.0,-1.6%,-1,14,0,-0.4
Nc1nnc(CSCc2ccc(F)cc2)s1,-0.3,2.6%[38.3 µM],-7,0,-7,-0.7
COc1ccccc1NC(=O)COC(=O)CCc1ccc(S(=O)(=O)N2CCOCC2)cc1,0.6,2.3%,-9,7,-3,-0.5

Exported in markdown: entries from further up
| structure | TRPML1 ag | PINK1 modulator | TRPML1 inh | Six1-Eya2 blk | CtBP-E1A blk | D2 agonist |
| --- | --- | --- | --- | --- | --- | --- |
| COc1ccc(NC(=O)C(C)N2C(=O)c3ccccc3C2=O)c(OC)c1 (stereo unspecified) | 1.0 | -0.4% | -15 | -2 | 5 | -3.6 |
| Cc1cccc(NC(=O)c2ccc(NCC3CCCO3)c([N+](=O)[O-])c2)c1 (stereo unspecified) | 0.9 | ? | -12 | -20 | -5 | -5.3 |
| CCc1ccc(OC(C)C(=O)N(Cc2ccco2)C2CCS(=O)(=O)C2)cc1 (stereo unspecified) | -0.9 | -1.0% | 0 | -1 | -3 | -2.6 |

Remaining list, next part.
SMILES | TRPML1 ag | PINK1 modulator | TRPML1 inh | Six1-Eya2 blk | CtBP-E1A blk | D2 agonist
CC(NC(=O)C1CCCCC1)C(c1cccs1)N1CCN(C)CC1 (stereo unspecified) | 0.3 | 0.0% | 6 | 5 | 2 | -4.4
C=C(C)C1CC=C(C)/C(=N\NC(=O)CNc2ccccc2OC)C1 (stereo unspecified) | 2.7 | 0.7% | -11 | -11 | / | -4.5
O=C(Nc1cc(Cl)cc(Cl)c1)c1coc(=O)c(Br)c1 | 0.8 | 1.4% | 40 | -15 | 4 | -5.6
CCn1c(C)nc2cc(C(=O)NNC(=O)Nc3ccc(Cl)cc3)ccc21 | 0.5 | 5.1% | 48 | 0 | 2 | -2.1
Cc1cc(C)nc(SCc2nc(N)nc(-c3ccccc3O)n2)n1 | 2.6 | -0.2% | -1 | -1 | -1 | -0.1
COc1ccc(OC)c(NC(=O)CN2C(=O)c3ccccc3Sc3ccc(C(=O)N4CCCC4)cc32)c1 | 3.3 | 1.5% | -16 | / | / | /
COc1ccc(OC)c(S(=O)(=O)Nc2ccc3oc4c(c3c2)C(=O)CCC4)c1 | -0.1 | -0.4% | 2 | -6 | -2 | 3.8
Cc1cc([N+](=O)[O-])ccc1NC(=O)CSc1nncn1-c1cccnc1 | -0.1 | 1.1% | -27 | 7 | 5 | 4.4
O=C(COC(=O)c1ccc(F)cc1F)Nc1cccc(S(=O)(=O)N2CCOCC2)c1 | 0.0 | 1.5% | -5 | 3 | 2 | -1.8
COCCNC(=O)c1cccc(S(=O)(=O)N2CC3(C)CC2CC(C)(C)C3)c1 (stereo unspecified) | -0.2 | 0.3% | 6 | 14 | -2 | -2.6
Clc1nccc(NCc2ccccc2)n1 | -0.7 | 1.2% | 15 | -7 | -19 | -2.2
COc1ccc(CCNC(=O)c2cc3c(=O)n(C)c4ccccc4c3n2C)cc1OC | 2.6 | 14% | 23 | -5 | -1 | 3.0
Cc1cccc(-c2noc(CN(C(=O)c3ccc(C)c(C)c3)C(C)C)n2)c1 | 1.9 | 0.1% | 60 | / | / | /
O=C(/C=C/c1cccc([N+](=O)[O-])c1)N1CCN(S(=O)(=O)c2cccs2)CC1 | 0.1 | -1.2% | -1 | -6 | -25 | -3.1
Cc1ccc2nsnc2c1S(=O)(=O)N1CCCC1C(=O)O (stereo unspecified) | -0.7 | -0.1% | 26 | 6 | 17 | -18
COC(=O)/C(=C\C(=O)c1ccccc1)Nc1cccc(C(F)(F)F)c1 | -0.7 | 0.9% | 7 | -2 | 3 | -1.4
Cc1cccc(C)c1NC1=NC(=S)N(c2ccccc2)C12CCOC(C)(C)C2 (stereo unspecified) | 7.1 | 1.0% | 0 | 7 | -2 | -2.6
COc1cc(C(=O)Nc2sc3c(c2C#N)CCN(C(C)=O)C3)cc(OC)c1OC | -0.8 | 14% | 40 | -11 | -6 | 1.4
CC(C)c1ccc(C(=O)CSc2ncn[nH]2)cc1 | 4.6 | -2.5%[38.3 µM] | 5 | 4 | -3 | -2.2
CC(OC(=O)c1cccs1)C(=O)Nc1nc(-c2ccccc2)cs1 (stereo unspecified) | -0.3 | 2.7% | 1 | 3 | 2 | 3.4
CCOC(=O)N1CCN(Cc2nc(-c3ccc(OC)cc3)no2)CC1 | -0.5 | 9.5%[38.3 µM] | 1 | -1 | 6 | 1.0
CC(=O)Oc1ccc(C(=O)Nc2cccc(-c3nnc(-c4ccco4)o3)c2)cc1 | 1.2 | 0.0% | 14 | ? | ? | 2.3
Cc1ccc(S(=O)(=O)NC(=O)C2CCCCC2)cc1 | 0.3 | 1.5% | -12 | 7 | 7 | -1.2
COc1cccc(OCC(=O)NNC(=O)CCc2ccccc2)c1 | 0.0 | -0.5% | 5 | 5 | 2 | 3.0

Compound activity from PubChem.
